Screens: PubChem BioAssay, National Center for Advancing Translational Sciences (NCATS)
Sfp inh: blocks B. subtilis Sfp PPTase activity; Q9F4F7; Biochemical Sfp PPTase activity, qHTS; AID 1490; 310,000 tested, 3.5% active; Potency, µM, without a hit: max response, negative = inhibition, actives largely listed as inhibitors; active = well fitted inhibition curve with a large enough effect; inconclusive = small, poorly fitted or top-dose-only effect, or another doubt; inactive = no such curve, though single readings can be large or run the other way;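 also: the enzyme is Sfp with the accession as filed and its product quenches rhodamine fluorescence; potency is read from the fitted curve at half-maximal effect; 0% = enzyme reaction without inhibitor and -100% = no enzyme wells; top concentration of the series not given in the record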
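With Hepes-Na pH 7.6 buffer containing 10 mM MgCl2, Sfp (15 nM) modified BHQ-2-YbbR (12.5 uM) using rhodamine-CoA (5 uM). Two reads 30 minutes apart at 525/598 nm yielded each well's rate.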
TRPV1 PAM: potentiators of human vanilloid receptor 1 (TRPV1) | Q8NER1 | TRPV1-expressing cells, Fluo-8 calcium influx, capsaicin EC20 potentiation; host cell line not named in the record; control for the full effect not named in the record | potentiation, % at 8.33 µM | 320,000 tested, 0.02% active | AID 540277; active means potentiation above 80%; inconclusive means 30% to 80%; inactive means below 30%; also: 0% is about no effect
Target sequence (Q8NER1 whole entry, looked up): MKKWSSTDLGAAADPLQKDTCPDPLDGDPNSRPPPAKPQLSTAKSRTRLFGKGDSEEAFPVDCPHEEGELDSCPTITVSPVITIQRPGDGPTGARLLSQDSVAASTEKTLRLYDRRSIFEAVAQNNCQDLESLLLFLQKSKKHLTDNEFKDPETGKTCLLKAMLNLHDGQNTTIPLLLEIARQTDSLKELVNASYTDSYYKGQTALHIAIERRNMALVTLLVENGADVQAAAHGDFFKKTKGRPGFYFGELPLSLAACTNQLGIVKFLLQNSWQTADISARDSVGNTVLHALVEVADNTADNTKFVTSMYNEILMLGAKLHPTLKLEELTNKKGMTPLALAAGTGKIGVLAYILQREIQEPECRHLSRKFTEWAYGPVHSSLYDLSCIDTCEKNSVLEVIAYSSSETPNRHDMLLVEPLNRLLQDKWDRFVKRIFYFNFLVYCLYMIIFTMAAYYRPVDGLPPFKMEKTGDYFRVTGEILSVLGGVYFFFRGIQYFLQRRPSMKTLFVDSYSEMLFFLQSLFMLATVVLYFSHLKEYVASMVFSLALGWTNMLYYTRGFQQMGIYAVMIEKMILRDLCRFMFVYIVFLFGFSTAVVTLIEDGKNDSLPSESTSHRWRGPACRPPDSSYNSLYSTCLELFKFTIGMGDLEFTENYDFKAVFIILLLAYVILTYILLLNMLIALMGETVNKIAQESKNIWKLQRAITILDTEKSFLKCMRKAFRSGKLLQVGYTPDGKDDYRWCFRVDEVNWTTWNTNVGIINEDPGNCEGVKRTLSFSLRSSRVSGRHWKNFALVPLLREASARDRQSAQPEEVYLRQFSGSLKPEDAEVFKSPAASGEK
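Fluo-8 calcium influx in TRPV1-expressing cells, kinetic read (ex 480/em 520 nm). Compound added and read 3 min for agonist activity, followed by capsaicin at EC20 final and 2 min further read for enhancement.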
Menin MLL FP FL: inhibitors of human menin-MLL interaction, wild-type MLL peptide; AID 1766; 290,000 tested, under 10 active; FP activity change, % at 61.4 µM; Fluorescence polarization, fluorescein-MLL peptide displacement from menin; inconclusive = falling polarisation curve, or a change in total fluorescence; inactive = total fluorescence flat and polarisation flat or rising; no compound was filed as active; the % refers to the polarisation; negative = inhibition;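 also: % of control where 0% means no effect; inhibitors lower the polarisation; unlabelled MLL peptide was the positive control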
ClpP mod: qHTS Assay for Activators of ClpP; ATP-dependent Clp protease proteolytic subunit (Bacillus subtilis (strain 168)), P80244; purified B. subtilis ClpP, FRET peptide cleavage, 20 min; Potency, µM (highest dose often 57.5 µM), inactives show top-dose activity change, negative = active; 340,000 tested, 1.9% active; AID 651965, 2013; active = well fitted falling curve with a large enough effect; inconclusive = small, poorly fitted or top-dose-only effect; inactive = no such curve, though single readings can be large or run the other way; also: potency is read from the fitted curve at half-maximal effect; the source files actives as falling curves though it sought activators and does not explain the sign; nearly all actives have a fitted effect of over 65% in size; many hits overshoot -100%
Target sequence (P80244 whole entry, looked up): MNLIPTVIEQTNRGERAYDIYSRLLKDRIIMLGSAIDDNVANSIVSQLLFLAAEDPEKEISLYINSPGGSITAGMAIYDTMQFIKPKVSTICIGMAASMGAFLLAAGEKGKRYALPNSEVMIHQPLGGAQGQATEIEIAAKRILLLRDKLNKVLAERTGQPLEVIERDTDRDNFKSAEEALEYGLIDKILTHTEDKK
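FRET quenching reversal measured ClpP activation: 10 microg/mL B. subtilis ClpP at pH 8 with the FRET-FV decapeptide, read at 430 nm after 320 nm excitation. The 20-min minus 0-min signal was scaled between DMSO/no-enzyme wells and ADEP (5.8 microM final).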
gsp ag: gsp mutant agonism; gsp mutant cells, cAMP HTRF, 30 min; control for the full effect not named in the record; Potency, µM (series often up to 76.9 µM), without a hit: at the highest dose activation (cAMP increase), actives largely listed as activators; 340,000 tested, 0.13% active; AID 624287; active = well fitted activation curve with a large enough effect; inconclusive = small, poorly fitted or top-dose-only effect, or another doubt; inactive = no such curve, though single readings can be large or run the other way; cell line not stated here;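 also: phosphodiesterase inhibitor Ro 20-1724 added with compounds to block cAMP breakdown; potency is read from the fitted curve at half-maximal effect; nearly all actives have a fitted effect of over 60% in size; about a fifth of the inactives were tested at one dose only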
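Cells stably selected in G418 were plated at 2000/well, grown 16-24 hr, then given compounds in DMSO with the PDE inhibitor […] (300 uM solution added) for 30 min at 37C; cAMP was read by HTRF.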
gsp antag: antagonizes gsp, the McCune-Albright syndrome mutation. gsp-mutant cells, cAMP HTRF, 30 min; control for the full effect not named in the record. Potency, µM (top dose mostly 76.9 µM), without a hit: at the highest dose activity change, negative = inhibition, usual class: inhibitors. 340,000 tested, 0.4% active; active = falling curve of any shape with a large fitted effect; inconclusive = falling curve, mostly with a smaller effect; inactive = flat or rising curve; cell line not stated here;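 also: intracellular cAMP measured with PDE inhibitor Ro 20-1724 present during compound exposure; potency is read from the fitted curve at half-maximal effect; % is scaled to controls: 0 for no effect and ±100 for the full control effect; nearly all actives have a fitted effect of over 65% in size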
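HTRF cAMP measurement after 30 min RT detection following 30 min, 37C compound treatment alongside […] (added as 300 uM solution) in G418-selected cells seeded at 2000/well and grown 16–24 h.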
TRPML1 inh: inhibitors of human TRPML1 channel; TRPML1-inducible cells, Ca2+ dye fluorescence, FDSS; active compounds read low; inhibition of EC80 agonist-evoked calcium signal; AID 624415; activity change, negative = inhibition, % (no concentration beside the values); 390,000 tested, 0.02% active; Q9GZU1; in the data active means activity change below about -50%; inconclusive means about -30% to -50%; inactive means above about -30%;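 also: stimulus is agonist 54-4 at its EC80 concentration; % is scaled to controls: 0 for no effect and ±100 for the full control effect; compound concentration not given in the record; the text of the record puts the active cut at -80%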
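Calcium fluorescence in TRPML1-DL cells induced overnight with Tet: a 110 s read after compound pin addition, then a 110 s antagonist read after challenge with 54-4 at 4 uM final (EC80).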
Active calls of the source: *; ? = inconclusive; / = no result given; & = joins results of further samples; [ ] = dose if it differs, or a comment.

molecule	TRPV1 PAM	gsp antag	Menin MLL FP FL	Sfp inh	TRPML1 inh	ClpP mod	gsp ag
CCc1cccc(C)c1NC(=O)CNCc1ccccc1	9	-4%	-24	-13%	25	-4.4%	11%[15.4 µM]
O=C(O)c1cccnc1SC1CC(=O)N(CCc2ccccc2)C1=O (stereo not given)	3	7%	3.2	12%	-3	-0.7%	1%
C=CCOC(=O)/C(=C/c1ccco1)NC(=O)/C=C/c1ccccc1	-7	11%	?	14%	4	-1.2%	-15%
COc1cccc(C(C(=O)NC2CCCC2)N(Cc2cccnc2)C(=O)Cc2cccs2)c1 (stereo not given)	28	-28%	-14	-7%	-17	-0.8%	24%[15.4 µM]
Cc1cc(C)n2nc(C(=O)N/N=C/c3ccccc3Cl)nc2n1	3	-1%	0.5	13%	15	-0.6%	2%[15.4 µM]
COc1ccc(Cl)cc1NC(=O)CN1CCCC1	1	-7%	0.5	13%	14	/	2%[15.4 µM]
O=C(CCn1cnc2ccccc21)N/N=C/c1ccc(O)cc1	22	11%	5.1	-3%	10	/	-11%
COc1ccc(NC2=NC(C)(CO)CS2)cc1 (stereo not given)	18	6%	?	-1%	3	-0.2%	2%
COc1ccccc1C(=O)NC(=O)COc1ccc([N+](=O)[O-])cc1	-8	-6%	/	/	20	-29%	16%
CCn1c(CCCc2ccc(OC)c(C)c2)n[nH]c1=S	3	-4%	9.3	?	-22	0.6%	10%
COc1ccccc1/C=C/C(=O)NC(=S)N(C)C1CCCCC1	/	-10%	-0.6	-12%	1	19%	0%
NC(=O)c1ccc[n+](CC(=O)c2ccc(NC(=O)c3ccccc3)cc2)c1	17	3%	1.6	15%	12	-1.3%	-7%[15.4 µM]
CC(C)(C)C(=O)Nc1ccc2oc(-c3cc(F)c(F)cc3Cl)nc2c1	2	1%	4.2	14%	-4	32µM*	-16%
C/C=C/c1ccc(OCC(=O)OCC)c(OC)c1	5	-14%	4.5	-3%	8	-2.8%	-12%
O=C(O)c1ccccc1NS(=O)(=O)c1ccccc1C(F)(F)F	-6	?	4.5	-8%	40	-1.7%	20%
CCCn1nnc(NC(=O)c2ccccc2Br)n1	-15	2%	1.4	5%	-11	1.3%	-27%
CN(C(=O)c1cccc(C#N)c1)c1nnc(C2CCOC2)s1 (stereo not given)	-27	-5%	5.7	8%	-3	0.1%	-9%
O=C(COc1cccc2ccccc12)N/N=C/c1ccco1	16	4%	/	-10%	-8	-0.4%	5%
CCOC(=O)c1ccc2nc(Nc3nc4ccc(F)cc4s3)sc2c1	17	9%	8.5	-16%	1	16µM*	0%
CC(=O)c1ccc(NC(=O)C(Cc2ccccc2)NC(=O)c2ccco2)cc1 (stereo not given)	-3	10%	0.8	13%	-10	-1.8%	1%
COc1ccc(-c2[nH]ncc2CNC(C)c2ccccc2Cl)cc1F (stereo not given)	-3	4%	-1.0	5%	14	-2.9%	-10%
COc1ccc(NC(=O)CN2C(=O)NC(c3ccccc3)(c3ccccc3)C2=O)cc1	8	-29%	0.4	14%	-5	/	0%[15.4 µM]
CCN(CC)CC(C)CNC(=O)CC(C(=O)N1CCc2ccccc21)n1ccnc1 (stereo not given)	15	5%	0.0	3%	-4	-1.9%	-5%
CCCc1cc(=O)[nH]c(SCC(=O)c2cc(C)n(C3CC3)c2C)n1	-1	-10%	5.6	2%	6	18µM*	17%
CCc1ccccc1NC(=O)/C(=C/c1ccccc1)c1ccccc1	-14	-4%	2.0	-7%	-4	0.1%	-14%
COc1ccc(CCN2CC(C(=O)NCc3c(C)n[nH]c3C)CCC2=O)cc1 (stereo not given)	12	4%	/	7%	-5	2.0%	?
Clc1ccc(Oc2cccc(/C=N/n3cnnc3)c2)cc1	19	-1%	-2.7	-20%	-13	-2.2%	18%
COc1ccc(C(C[N+](=O)[O-])n2nc(C)cc2C)cc1 (stereo not given)	1	8%	-1.7	?	-10	1.6%	37%
CNC(=O)c1cc2c(-c3ccccc3)nn(C)c2s1	-13	-3%	-9.4	-3%	26	/	?
Cn1cccc1/C=N/NC(=O)c1cc(-c2cccs2)nc2ccccc12	0	10%	4.7	?	-4	-3.0%	-40%[inhibitor]
CCCCN1CC(=O)N2[C@H]3c4ccc(OC)cc4OC[C@@H]3[C@H](C(=O)OCC)[C@]2(C)C1=O	-11	7%	/	/	-12	0.9%	/
CCOc1cc(/C=C(\C#N)c2nc3ccccc3[nH]2)ccc1OC(C)C(=O)O (stereo not given)	10	-12%	19	3%	-15	-9.1%	-22%
Cc1ccc(S(=O)(=O)c2c(COC(=O)c3cccc(Cl)c3)c(-c3ccccc3)nn2C)cc1	3	11%	1.5	4%	-10	-0.2%	-19%
O=C(c1cc2c(s1)CCCCC2)N1CCN(c2ncccn2)CC1	-8	-11%	3.2	-3%	1	-4.8%	-25%
COc1ccc(NC(=O)COC(=O)CC2CCCCC2)cc1	-24	-9%	/	/	-1	-2.8%	6%
O=[N+]([O-])c1cccnc1N1CCCCC1	/	7%	2.9	16%	-11	-2.1%	?
COc1ccc(N2CCN(Cc3cc(OC)c(O)c([N+](=O)[O-])c3)CC2)cc1	3	-6%	/	?	5	-1.8%	20%
CCOC(=O)N1CCN(C(=O)/C=C/c2ccc(C(C)(C)C)cc2)CC1	-44	-8%	2.6	2%	8	-4.5%	-8%[15.4 µM]
Cc1ccccc1NC(=S)NC(NC(=O)COc1ccccc1)C(Cl)(Cl)Cl (stereo not given)	1	9%	4.2	12%	2	0.8%	-14%
CSC(=S)NN=C(C)c1cccc(C)n1	/	6%	/	/	22	-2.2%	19%
N#Cc1c(N)nc(SCC(=O)OCc2ccccc2)c(C#N)c1-c1ccco1	13	4%	9.8	10%	24	-30%	25%
O=C1CCC(C(=O)N2CCCC(C(=O)c3ccc4c5c(cccc35)CC4)C2)=NN1 (stereo not given)	-21	4%	1.0	11%	-2	3.6%	-10%
CCc1ccc(C2CC(c3ccc(C)cc3)n3nc(N)nc3N2)cc1 (stereo not given)	/	5%	/	/	10	-0.9%	-6%
CCOC(=O)CC1=NS(=O)(=O)c2ccccc2N1	-2	4%	2.2	17%	0	2.4%	30%
CCc1ccc2[nH]c3nc(N/N=C/c4ccc(O)cc4O)nnc3c2c1	0	10%	0.2	5%	-2	/	1%
COc1ccc(C2=NN(C(=O)c3cccs3)C(c3ccccc3O)C2)cc1 (stereo not given)	-12	?	-0.7	-27%	-6	4.1%	-32%[inhibitor]
CCOC(=O)C(C(=O)OCC)=C1OC(=O)c2ccccc21	-11	7%	-0.9	12%	3	-0.5%	19%
C[C@H](CO)N1C[C@H](C)[C@@H](CN(C)S(=O)(=O)c2ccc(-c3ccccc3)cc2)OCc2cn(nn2)CCCC1=O	/	/	/	/	81	-1.0%	?
COc1cc(CC(=O)Nc2ccccc2N2CCCCC2)cc(OC)c1OC	-13	/	-0.9	-6%	19	/	13%[15.4 µM]
COc1ccc(CNC(=O)COC(=O)c2ccc(S(=O)(=O)NCc3ccco3)cc2)cc1	/	-14%	/	/	4	0.5%	2%
CC(Nc1ncnc2ccccc12)c1ccccc1 (stereo not given)	-6	-26%	-0.9	2%	-7	/	?
Cc1ccc(SCCN2CCC(O)CCC2=O)cc1 (stereo not given)	11	5%	1.8	18%	-6	0.4%&-0.9%	/
Cc1ccc(N2CC(c3nc4ccccc4n3C)CC2=O)cc1 (stereo not given)	-15	4%	4.2	40%[activator]	4	-0.3%	-3%
C/C(=C1\SC(N2CCOCC2)=NC1=O)c1ccccc1	14	-6%	4.1	12%	4	1.0%	-1%
O=C(CSc1nnc(-c2ccncc2)n1Cc1ccccc1)Nc1nccs1	-1	12%	4.7	1%	1	-3.1%	-6%
O=C(Nc1cc2c3c(c1)CC(=O)N3CCC2)c1cccc(F)c1	0	-1%	/	/	-9	3.2%	12%
CCOC(=O)C1CCCN(CCC(=O)Nc2cc(OC)ccc2OC)C1 (stereo not given)	-6	4%	-0.3	-2%	1	/	-5%
O=c1[nH]c(C2CCN(S(=O)(=O)c3ccc4c(c3)OCCO4)CC2)nc2c1nnn2Cc1c(F)cccc1Cl	0	?	2.9	-16%	-20	/	-16%
Fc1nc(F)c(F)c(NCCCNc2c(F)c(F)nc(F)c2F)c1F	-8	-13%	-0.1	0%	-7	1.7%	-15%
COc1ccccc1C1/C(=C(/O)c2ccc(Cl)cc2)C(=O)C(=O)N1CCN1CCOCC1 (stereo not given)	8	3%	-1.3	-6%	15	-6.4%	0%

(listing goes on)
molecule	TRPV1 PAM	gsp antag	Menin MLL FP FL	Sfp inh	TRPML1 inh	ClpP mod	gsp ag
CCn1ncc(C2=NOC(C(=O)N3CCN(c4ccccc4)CC3)C2)c1C (stereo not given)	0	-27%	0.7	-24%	34	0.8%	?
Cc1cc(C(=O)Nc2ccccn2)no1	-2	7%	2.3	16%	-7	-2.8%	-35%
CC1CCN(C(=S)c2ccc(N(C)C)cc2)CC1	0	-9%	0.1	?	0	/	?
COc1ccc(C(=O)COC(=O)CCn2nnc(-c3cccs3)n2)cc1	-3	-14%	0.9	1%	-4	-1.7%	-105%[inhibitor]
O=C(NCc1ccc(F)cc1)C(=O)NCC1CCCN1S(=O)(=O)c1ccccc1 (stereo not given)	-2	-1%	/	/	-4	-8.7%	-3%
COc1cc(/C=C2\SC(N3CCc4ccccc4C3)=NC2=O)cc(OC)c1OC	-27	16%	2.4	?	-1	0.6%	-8%
CCCn1nc(NC(=O)C(C)C)c2cc3cc(OC)ccc3nc21	-12	-9%	-1.9	5%	26	-13%	?
O=C(c1cc(Cl)cc(Cl)c1)N1CCC2CC1c1cc(-c3ccc4c(c3)OCO4)ccc12 (stereo not given)	/	4%	/	/	-12	-3.5%	/
